Sa RN4220 lethal – kills Staphylococcus aureus RN4220; AID 1259311; S. aureus RN4220 growth, OD600, 16 h; 330,000 compounds, 0.33% hits; inhibition, % (no concentration beside the values);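 active = z-score of -3 or lower and OD600 up to 0.18 on both plates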;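 also: plate controls were untreated cells for no effect and reference antibiotic for full effect; stock transfer was 100 nL into about 80 µL; one replicate is shown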
Bead autofluor – counter-screen for toxin protease inhibitors: compound fluorescence; compound autofluorescence counterscreen, microsphere flow cytometry; hits give high values; fluorescence intensity (test concentration not listed); 360,000 compounds, 3.1% hits; AID 624483;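 active = at least 3 SD above the mean of all compounds, about 16000 in these data; inconclusive = too few beads counted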;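 also: 100 nL of 1 mM stock went into each well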
Mtb hypoxia rep – reduces hypoxia-regulated biosensor signal in M. tuberculosis | M. tuberculosis hypoxia-regulated fluorescent reporter, fluorescence | fluorescence inhibition, % (test concentration not listed) | 300,000 compounds, 0.1% hits;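 active = 35 to 45% if threefold the growth effect, above 45% if 1.5-fold the growth effect; inactive = the rest, general growth blockers included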;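 also: wells of about 50 µL received 100 nL stock; 0% = vehicle wells and 100% = reference inhibitor wells; whole bacteria with a GFP reporter of the hypoxia response; strong numbers were not always called active; many hits fall short of the cut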
Sa ugtP lethal – growth inhibition of S. aureus ugtP deletion strain; 330,000 compounds, 0.54% hits; growth inhibition, % (test concentration not listed); S. aureus RN4220 ugtP deletion, OD600 growth, 16 h; some inactives read as strong as hits; AID 1259309;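 active = z-score under -3 and OD600 up to 0.15 on both plates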;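 also: plate controls were untreated wells for no effect and antibiotic for full effect; wells of about 80 µL received 100 nL stock; the first replicate is given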
PrP 5UTR inh – inhibition of PrP 5' UTR reporter expression. cell-based PrP 5' UTR mRNA reporter, plate reader. inhibition, % (concentration not given with the values). 340,000 compounds, 0.35% hits;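 active = every replicate at 50% or more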;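 also: 0 = median of the neutral control wells; tested in H4 reporter cells; numbers are from one replicate; inactives centre near -14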
BJeLR lethal – BJeLR cell viability loss; 300,000 compounds, 0.17% hits; AID 1554; BJeLR (HRASV12) viability, CellTiter-Glo ATP luminescence, 48 h; reference of the scale not given here; inhibition, % (no concentration beside the values);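 active = replicate mean above 50%; inconclusive = above 50% but judged a plate artefact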;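 also: 50 nL library stock added to about 25 µL; numbers are from one replicate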
Mtb hypoxia rep growth – further read-out of Mtb hypoxia rep, marked with its call; growth inhibition, %; measured here: M. tuberculosis growth (absorbance);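 0% = vehicle and 100% = reference antibiotic; read after six days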
* marks the source's active call; other numbers are inactive results; u = inconclusive; x = no result given.

The first 4 compounds (preview)
The line under a structure holds: Sa RN4220 lethal	Bead autofluor	Mtb hypoxia rep	Mtb hypoxia rep growth	Sa ugtP lethal	PrP 5UTR inh	BJeLR lethal
Cc1cc(-c2[nH]nc3c2C(c2ccc(Cl)cc2)C(C#N)=C(N)O3)c(C)s1 (stereo not drawn)
 : 4.3	3282	x	x	-5	-5	1
Cc1cc(C(=O)NNC(=S)NC(C)c2ccccc2)c2ccccc2n1 (stereo not drawn)
 : 4.6	2249	-2	-3	-9	-29	-13
CCc1cc2c(SCC(=O)C(C#N)=C3N(C)c4ccccc4N3C)ncnc2s1
 : 3.0	5346	x	x	-3	-20	-2
CCN(C1CCCCC1)S(=O)(=O)c1cn(C)c(=O)n(C)c1=O
 : -9.8	4432	11	6	-2	-16	-4

The whole of this part, from the start:
The line under a structure holds: Sa RN4220 lethal	Bead autofluor	Mtb hypoxia rep	Mtb hypoxia rep growth	Sa ugtP lethal	PrP 5UTR inh	BJeLR lethal
Cc1cc(-c2[nH]nc3c2C(c2ccc(Cl)cc2)C(C#N)=C(N)O3)c(C)s1 (stereo not drawn)
 : 4.3	3282	x	x	-5	-5	1
Cc1cc(C(=O)NNC(=S)NC(C)c2ccccc2)c2ccccc2n1 (stereo not drawn)
 : 4.6	2249	-2	-3	-9	-29	-13
CCc1cc2c(SCC(=O)C(C#N)=C3N(C)c4ccccc4N3C)ncnc2s1
 : 3.0	5346	x	x	-3	-20	-2
CCN(C1CCCCC1)S(=O)(=O)c1cn(C)c(=O)n(C)c1=O
 : -9.8	4432	11	6	-2	-16	-4
COCCNC(=O)CN(C(=O)c1ccc(N2CCCC2)nc1)c1ccc(F)c(Cl)c1
 : x	3857	x	x	x	-26	7
Cc1ccc(S(=O)(=O)/C(=C\N(C)C)c2cnc(Cl)s2)cc1
 : -1.2	3950	9	12	4	-24	11
Cc1c(C(=O)NNC(=S)Nc2cccc(Cl)c2)nnn1-c1ccccc1
 : 4.5	2054	3	3	-15	-22	18
Cc1ccc(CNc2nnnn2C)cc1
 : 3.2	4201	12	0	7	-11	1
COc1ccc(CN2CN(c3ccc(Cl)cc3)C(=O)N(n3cnnc3)C2)cc1
 : 2.2	11392	17	-9	-4	-36	0
O=C(O)C1CCN(S(=O)(=O)c2ccc(Cl)s2)CC1
 : 5.9	4333	17	11	3	-8	x
Cc1cccc(C2C3C(=O)N(Cc4ccccc4)C(=O)C3[C@]3(C)C(=O)N(c4ccc(C(F)(F)F)cc4)C(=O)N23)c1 (stereo partly drawn)
 : 4.2	x	0	9	0	x	x
COc1ccc(-n2c(C)nc3cc(C(=O)NCc4ccco4)ccc32)cc1
 : -17	2638	x	x	60	-10	1
COc1ccc(C(=O)OCCN2CCCCC2)cc1
 : -0.2	2456	3	14	-1	-19	-4
CCOCCCNCc1c(Cl)cccc1Cl
 : 6.0	1932	16	6	3	-29	-2
CC(C)Cc1cc(C(=O)N2CCN(C(c3ccccc3)c3ccccc3)CC2)no1
 : -1.3	4878	x	x	5	3	-6
Cc1ccc(S(=O)(=O)n2ccc(=O)[nH]2)cc1
 : 6.9	4271	1	0	-1	-16	3
Cc1ccc(NC(=S)N/N=C2\CCCCC2C)cc1 (stereo not drawn)
 : x	3815	x	x	x	-23	5
COC(=O)CCN(C(=O)c1cccc([N+](=O)[O-])c1)c1ccccn1
 : 3.1	3304	6	-3	3	-10	3
CN(Cc1ccccc1)C(=O)c1[nH]cnc1C(=O)NC(CCCCNC(=O)OC(C)(C)C)C(=O)OC(C)(C)C (stereo not drawn)
 : 7.9	x	4	-3	13	x	x
O=C1N[C@@H](c2ccccc2)COC(=O)[C@@H](Cc2ccc(F)cc2)CC/C=C/C[C@@H]1CC(=O)N(CCO)Cc1ccccc1
 : 0.7	3462	4	12	-4	1	x
COc1ccccc1OCC#CCN1CCCCCC1
 : -0.5	4229	16	2	7	-16	-5
O=C(Nc1cc2c(cc1Cl)OCCCO2)c1ccccc1
 : -10	2761	4	11	-7	-60	-4
COc1cc(Cl)c(NS(=O)(=O)c2cc3[nH]c(=O)c(=O)[nH]c3cc2C)c(OC)c1
 : -2.0	4026	x	x	7	12	-13
CCOC(=O)C1(CCC(=O)OCc2ccccc2)CCCCC1=O (stereo not drawn)
 : 3.6	2952	6	-4	8	-13	x
Cc1cccc(C)c1OCc1cc(C(=O)NC2CCC(O)CC2)no1 (stereo not drawn)
 : 1.4	u	3	7	2	-10	-5
CC1=C2C(=O)C3C(CC=C4CC(OC5OC(O)C(O)C(O)C5CO)CCC43C)C2CCC12OC1CC(C)CNC1C2C (stereo not drawn)
 : -2.7	4340	1	-4	6	x	10
COc1ccc(N2CCN(c3ncnc4nc[nH]c34)CC2)cc1
 : 5.1	5909	5	5	6	-8	5
CCOc1ccc(NC(=O)CSc2nnc(-c3ccco3)n2C)cc1
 : 3.5	2824	4	5	-1	-6	6
O=C(NCc1ccccc1)C1=C[C@H](C2CCCCC2)C[C@H](OCc2ccc(CO)cc2)O1
 : x	4189	x	x	x	-26	5
CO/N=C/c1ccc(Sc2ccccc2)c([N+](=O)[O-])c1
 : x	2324	x	x	x	-12	-9
O=C(CSc1nc(-c2ccccc2)ns1)NCC1CCCO1 (stereo not drawn)
 : 0.4	x	x	x	-5	-16	3
CCOc1ccc(NC(=O)c2ccccc2NS(=O)(=O)c2ccc(F)cc2)c([N+](=O)[O-])c1
 : 24	2623	-3	7	20	-10	8
COc1ccccc1CNC(=O)C(C)n1cccc1C(=O)c1ccccc1 (stereo not drawn)
 : 2.2	5455	-4	-5	3	-11	0
O=C(NCCc1c[nH]c2ccccc12)C(=O)NCC(c1cccnc1)N1CCN(c2ccccc2)CC1 (stereo not drawn)
 : -4.7	6172	-2	13	-1	-5	8
Cc1ccc(Sc2c(O)c3ccccc3n(C)c2=O)cc1
 : -1.2	2512	1	2	10	-5	3
O=C(NCCCN1CCOCC1)C1(c2ccccc2)CCOCC1
 : 6.0	5117	1	9	-12	-19	-1
CCC(Oc1ccccc1)C(=O)N1CCN(C(=O)C(CC)Oc2ccccc2)CC1 (stereo not drawn)
 : -2.2	12150	0	4	2	-14	-18
Nc1cccc2[nH]c(C(F)(F)F)nc12
 : 1.8	4226	-2	3	4	-8	0
Cc1nn(Cc2ccc(F)cc2)c(C)c1NC(=O)c1cccnc1Cl
 : -0.8	2028	5	0	5	3	7
CCCCn1c(CCC)nc([N+](=O)[O-])c1Sc1ccc(Cl)cn1
 : 8.0	4287	17	19	-8	-15	23

The closing 3 entries of the section before lead into the next.
| SMILES | Sa RN4220 lethal | Bead autofluor | Mtb hypoxia rep | Mtb hypoxia rep growth | Sa ugtP lethal | PrP 5UTR inh | BJeLR lethal |
| --- | --- | --- | --- | --- | --- | --- | --- |
| Nc1cccc2[nH]c(C(F)(F)F)nc12 | 1.8 | 4226 | -2 | 3 | 4 | -8 | 0 |
| Cc1nn(Cc2ccc(F)cc2)c(C)c1NC(=O)c1cccnc1Cl | -0.8 | 2028 | 5 | 0 | 5 | 3 | 7 |
| CCCCn1c(CCC)nc([N+](=O)[O-])c1Sc1ccc(Cl)cn1 | 8.0 | 4287 | 17 | 19 | -8 | -15 | 23 |
| Cc1ccc(C(=O)Nc2ccnc(-c3cccnc3)n2)cc1 | 5.9 | 3361 | 12 | 10 | 10 | -46 | -4 |
| NS(=O)(=O)c1ccc(NCc2cc(Cl)ccc2OCc2ccccc2F)cc1 | 2.0 | 11841 | 2 | 5 | 8 | -12 | 6 |
| CC(C)C(NS(=O)(=O)c1c(Cl)cccc1Cl)C(=O)OCC(=O)c1c[nH]c2ccccc12 (stereo not drawn) | -1.8 | 4613 | x | x | -28 | -1 | -11 |
| N#Cc1cc(C(=O)c2cc(F)ccc2O)cn(-c2nccs2)c1=O | 8.9 | 10954 | -5 | -3 | -20 | -6 | -1 |
| CCOC(=O)N1CCN(C(=O)CSc2ccc(Cl)cc2)CC1 | 5.5 | 2461 | 9 | 9 | 8 | -22 | -2 |
| COC(=O)[C@]1(C)N[C@H](c2ccc(-c3ccc(F)cc3)cc2)[C@@H]2C(=O)N(C)C(=O)[C@@H]21 | x | 2995 | x | x | x | -13 | -20 |
| COc1ccc(C2C(C(C)=O)=C(O)C(=O)N2c2nc3ccccc3s2)cc1OC (stereo not drawn) | 5.8 | 5254 | 6 | 3 | 0 | -1 | -5 |
| Nn1cc(-c2ccccc2)nc1SCC(=O)NCC(F)(F)F | 1.4 | 3999 | -10 | 5 | 10 | -9 | -4 |
| Fc1ccc(C=Nn2c(C3CCCCC3)n[nH]c2=S)cc1 | 4.6 | x | 1 | 3 | 4 | x | x |
| C(=NN1CCCCCC1)c1ccc2c(c1)OCO2 | 15 | 4043 | 9 | 5 | 6 | -47 | x |
| CC12Cc3ccc4ccccc4c3C=C1C[N+](C)(C)C2 (stereo not drawn) | 3.0 | 3368 | 5 | 9 | -5 | -25 | -5 |
| O=C(Nc1nc2ccc(Cl)cc2s1)[C@@H]1CCCN1C(=O)c1cccs1 | x | 2312 | x | x | x | -41 | 1 |
| CC1CCCN(C(=O)CSc2nnc(-c3ccncc3)n2C)C1 (stereo not drawn) | 3.4 | 4349 | 5 | 0 | 2 | -33 | -3 |
| Cn1c(SCC(=O)NC2CCCCC2)nnc1-c1ccc(N)cc1 | 2.8 | 2233 | 11 | 11 | -3 | -22 | -6 |
| O=C(O)c1ccc(N/N=C/c2ccc(-c3ccccc3Cl)o2)cc1 | x | 4909 | x | x | x | -26 | -1 |
| CCCN(CCC)S(=O)(=O)c1cccc(C(=O)N=c2sccn2C)c1 | 15 | 5467 | 0 | 9 | 1 | -9 | 6 |
| Cc1cc(NC(=O)CCCC(=O)Nc2ccc(F)cc2)no1 | 1.1 | 3722 | x | x | 6 | -5 | -16 |
| O=C(CCC1CCCN(C(=O)C2=CCCCC2)C1)N1CCN(c2ccccn2)CC1 (stereo not drawn) | 1.9 | 2422 | 9 | -2 | 4 | -34 | 3 |
| Cc1ccc(C)c(N2CCN(S(=O)(=O)c3c(C)[nH]c(C)c3C(=O)N3CCCC3)CC2)c1 | 1.5 | 5823 | -3 | 1 | -7 | 2 | -3 |
| COCCn1nnnc1C(c1ccc(OC)c(OC)c1)N1CCN(C(=O)c2ccco2)CC1 (stereo not drawn) | 3.2 | 3099 | 16 | 5 | 2 | -23 | -11 |
| COC(=O)c1c(NC(=O)c2ccco2)sc(C(=O)Nc2ccc(F)cc2)c1C | 8.3 | 7945 | 7 | 7 | -4 | -83 | -2 |
| CN(C)c1ccc(/C=N/NC(=O)c2ccnn2C)cc1 | x | 4306 | x | x | x | -63 | 8 |
| O=C(Nc1ccc2nc3n(c(=O)c2c1)CCCC3)c1ccccc1F | 2.4 | 3669 | 2 | 8 | -6 | -16 | 16 |
| COc1ccc(C(=O)Nc2nnc(SCC(=O)Nc3ccc(NC(C)=O)cc3)s2)c(OC)c1 | 2.9 | 4846 | 5 | 7 | -6 | -77 | 0 |
| CC(CC(=O)Nc1ccc(F)c([N+](=O)[O-])c1)c1ccccc1 (stereo not drawn) | -4.7 | 1954 | -3 | 14 | -7 | -24 | -5 |
| O=S(=O)(Cc1ccc(Cl)cc1)N1CCN(c2ncccn2)CC1 | 2.2 | 5778 | 7 | -1 | -2 | -9 | 9 |
| O=C(CSc1nnc2ccc(-c3ccc(F)cc3)nn12)N1CCCC1 | 2.9 | 6474 | 8 | 9 | 0 | 2 | 20 |
| CS(=O)(=O)c1ccc(Cl)c(NC(=O)CCNC(=O)c2ccco2)c1 | 2.7 | 5129 | 15 | -1 | 7 | -28 | -3 |
| CS(=O)(=O)N1CCC(C(=O)Nc2ccc(Cl)c(Cl)c2)CC1 | 0.7 | 3467 | 4 | -4 | -5 | -32 | 10 |
| Cc1cc(=O)n2c3c(cccc13)CCC2 | 1.9 | 5904 | x | x | 3 | -8 | 16 |
| Nn1c(SCC(=O)N2CCOCC2)nnc1-c1ccco1 | -1.1 | 2894 | -1 | 12 | -7 | -3 | 5 |
| CCCC(=O)Nc1ccc(-c2nc3cc(C)c(C)cc3o2)c(O)c1 | -3.9 | 2397 | x | x | 5 | -39 | 2 |
| CCCc1nc2sc3c(=O)n(N)cnc3c2c2c1COC(C)(C)C2 | 0.7 | x | 5 | -4 | 2 | x | -9 |
| O=C(COc1ccc(C(=S)N2CCOCC2)cc1)Nc1ccccc1C(F)(F)F | 0.4 | 3714 | -7 | -18 | 4 | -10 | 12 |
